Screening data from PubChem BioAssay.
A1 apoptosis 2 = blocks A1, raising caspase activity; caspase activation, % (concentration not given with the values); MEF A1-2A-BIM cells, caspase-Glo luminescence, 3 h; percent of clofoctol response, DMSO zero; 24,000 tested, under 10 active; in the data active = caspase activation above about 5.9%;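 also: wells of about 30 µL received 50 nL stock; the first replicate is given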
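Evaluation: Caspase-3/7 activity from luminescence increase | Assay system: A1-2A-BIM mouse embryonic fibroblasts | Quantity: 2500 MEF cells/well | Medium: RPMI-1640 plus 10% FBS | Detection: Caspase-Glo 3/7 luminescence, 1 h at room temperature | Dosing: 50 nL compound per well, pinned | Timing: Cells settled overnight, compound exposure 3 h at 37 °C, 5% CO2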
Starred values were filed as active, the others as inactive. Only part of the results is shown, so the mix of outcomes need not match the whole.

SMILES | A1 apoptosis 2
C[C@@H]1CN([C@H](C)CO)C(=O)c2cccc(NS(=O)(=O)c3cccs3)c2O[C@@H]1CN(C)Cc1ccc(-c2ccccc2)cc1 | -0.1
C[C@@H]1CCCCO[C@@H](CN(C)C(=O)Cc2ccccc2)[C@@H](C)CN([C@@H](C)CO)C(=O)c2cc(NC(=O)NC3CCCCC3)ccc2O1 | 0.1
C[C@@H]1CN([C@H](C)CO)C(=O)c2cccc(NC(=O)Nc3ccc(C(F)(F)F)cc3)c2O[C@H]1CN(C)CC1CC1 | -1.6
Cc1noc(C)c1S(=O)(=O)N(C)C[C@@H]1Oc2c(NC(=O)c3nc4ccccc4s3)cccc2C(=O)N([C@H](C)CO)C[C@@H]1C | 0.3
C[C@@H]1CN([C@H](C)CO)C(=O)Cc2cc(NC(=O)c3ccncc3)ccc2O[C@@H]1CN(C)S(=O)(=O)c1ccc(Cl)cc1 | -0.1
C[C@H]1CN([C@@H](C)CO)C(=O)c2cc(NS(=O)(=O)c3cn(C)cn3)ccc2O[C@H]1CN(C)S(=O)(=O)c1cn(C)cn1 | -1.5
COc1ccc(S(=O)(=O)N(C)C[C@H]2Oc3ccc(NS(C)(=O)=O)cc3C(=O)N([C@@H](C)CO)C[C@H]2C)cc1 | -1.2
Cc1noc(C)c1S(=O)(=O)N(C)C[C@@H]1Oc2ccc(NC(=O)Nc3ccccc3)cc2CC(=O)N([C@H](C)CO)C[C@H]1C | -0.9
C[C@@H]1CN([C@H](C)CO)C(=O)Cc2cc(NS(=O)(=O)c3ccc(F)cc3)ccc2O[C@H]1CN(C)Cc1ccccc1 | 0.3
Cc1noc(C)c1NC(=O)N(C)C[C@H]1Oc2ccc(NC(=O)c3ccncc3)cc2C(=O)N([C@H](C)CO)C[C@H]1C | -0.6
C[C@@H]1CCCCO[C@H](CN(C)C(=O)Nc2cccc3ccccc23)[C@@H](C)CN([C@H](C)CO)C(=O)c2cc(NC(=O)Cc3ccccc3)ccc2O1 | 0.3
CC(C)NC(=O)N(C)C[C@H]1Oc2c(NC(=O)CCCCCC(=O)Nc3ccccc3N)cccc2C(=O)N([C@H](C)CO)C[C@H]1C | 0.4
C[C@@H]1CN([C@@H](C)CO)C(=O)c2cc(N(C)C)ccc2O[C@H]1CN(C)Cc1ccccc1 | -0.3
C[C@@H]1CCCCO[C@H](CN(C)Cc2ccccc2)[C@@H](C)CN([C@@H](C)CO)C(=O)c2cc(NC(=O)Nc3cccc4ccccc34)ccc2O1 | 0.4
CNC[C@@H]1OCCCC[C@H](C)Oc2ccc(NC(=O)Cc3ccccc3)cc2C(=O)N([C@@H](C)CO)C[C@H]1C | 0.3
C[C@@H]1CN([C@@H](C)CO)C(=O)c2cc(NC(=O)Cc3cn(C)c4ccccc34)ccc2O[C@@H]1CN(C)Cc1ccc(Cl)c(Cl)c1 | -1.0
CC(C)NC(=O)N(C)C[C@H]1Oc2ccc(NS(=O)(=O)c3cn(C)cn3)cc2CC(=O)N([C@@H](C)CO)C[C@@H]1C | -0.2
CNC[C@H]1Oc2c(NC(=O)C3CCCCC3)cccc2C(=O)N([C@H](C)CO)C[C@@H]1C | -1.3
COc1ccc(S(=O)(=O)Nc2cccc3c2O[C@@H](CN(C)Cc2ccncc2)[C@@H](C)CN([C@@H](C)CO)C3=O)cc1 | 0.9
C[C@H]1CN([C@@H](C)CO)C(=O)c2cc(NC(=O)CCC(F)(F)F)ccc2O[C@@H]1CN(C)C(=O)Nc1cccc2ccccc12 | -0.4
C[C@@H]1CCCCO[C@@H](CN(C)C(=O)Nc2ccccc2)[C@@H](C)CN([C@@H](C)CO)C(=O)c2cc(NC(=O)CCC(F)(F)F)ccc2O1 | 0.7
C[C@@H]1CN([C@H](C)CO)C(=O)c2cc(N(C)C)ccc2O[C@@H]1CN(C)C(=O)NC1CCCCC1 | -1.1
COc1ccc(NC(=O)Nc2ccc3c(c2)C(=O)N([C@@H](C)CO)C[C@@H](C)[C@H](CN(C)S(=O)(=O)c2cn(C)cn2)OCCCC[C@H](C)O3)cc1 | -1.4
C[C@H]1CN([C@@H](C)CO)C(=O)Cc2cc(NC(=O)CCC(F)(F)F)ccc2O[C@@H]1CN(C)CC1CC1 | -0.4
C[C@H](CO)N1C[C@H](C)[C@H](CN(C)C(=O)Nc2ccc(F)cc2)Oc2ncc(-c3cccc(F)c3)cc2C1=O | -0.2
COc1ccc(S(=O)(=O)Nc2ccc3c(c2)C(=O)N([C@H](C)CO)C[C@@H](C)[C@@H](CN(C)C(=O)Nc2cccc4ccccc24)O3)cc1 | 0.2
C=CCOC(=O)[C@H]1[C@@H]2C(=O)O[C@@H](c3ccccc3)[C@@H](c3ccccc3)N2[C@@H](c2ccc(OCCOC(=O)[C@H]3C[C@H]4C(=O)NCC(=O)N4[C@H]3c3ccc(O)cc3)cc2)[C@]12C(=O)Nc1ccccc12 | -0.3
C[C@@H]1CCCCO[C@@H](CN(C)S(=O)(=O)c2ccc(F)cc2)[C@H](C)CN([C@@H](C)CO)C(=O)c2cc(NC(=O)C3CCCCC3)ccc2O1 | 1.3
CC(C)NC(=O)N(C)C[C@H]1Oc2ccc(NC(=O)CCC(F)(F)F)cc2CC(=O)N([C@@H](C)CO)C[C@@H]1C | -0.1
C[C@@H]1CN([C@@H](C)CO)C(=O)Cc2cc(NS(=O)(=O)c3cn(C)cn3)ccc2O[C@@H]1CN(C)Cc1ccc(C(=O)Nc2ccccc2N)cc1 | 0.5
CC(C)NC(=O)Nc1ccc2c(c1)C(=O)N([C@H](C)CO)C[C@H](C)[C@H](CN(C)Cc1ccc(C(=O)O)cc1)O2 | 0.0
C[C@H]1CN([C@@H](C)CO)C(=O)c2cccc(N(C)C)c2O[C@@H]1CN(C)C(=O)Nc1ccc(C(F)(F)F)cc1 | -0.3
O=C1O[C@H](c2ccccc2)[C@H](c2ccccc2)N2[C@H]1[C@@H](C(=O)N1CCN(c3ncccn3)CC1)[C@]1(C(=O)Nc3ccc(C#CC4=CCCCC4)cc31)[C@H]2c1ccccc1OCCO | 0.8
C[C@H]1CN([C@@H](C)CO)C(=O)Cc2cc(NC(=O)Cn3cnnn3)ccc2O[C@@H]1CN(C)Cc1ccc(C(=O)Nc2ccccc2N)cc1 | -0.6
COc1ccc(S(=O)(=O)N(C)C[C@@H]2Oc3ccc(NC(=O)Nc4ccc(C(F)(F)F)cc4)cc3CC(=O)N([C@H](C)CO)C[C@@H]2C)cc1 | 0.2
COc1ccc(NC(=O)Nc2cccc3c2O[C@@H](CN(C)C(=O)Nc2ccc(OC)cc2)[C@@H](C)CN([C@H](C)CO)C3=O)cc1 | 0.4
COc1ccc(S(=O)(=O)N(C)C[C@@H]2Oc3ccc(NS(=O)(=O)c4ccc(Cl)cc4)cc3C(=O)N([C@H](C)CO)C[C@@H]2C)cc1 | -1.3
C[C@@H]1CN([C@H](C)CO)C(=O)c2cccc(NS(=O)(=O)c3ccccc3)c2O[C@@H]1CN(C)S(=O)(=O)c1cccs1 | 1.0
C[C@H]1CCCCO[C@@H](CN(C)C(=O)Nc2ccccc2)[C@@H](C)CN([C@@H](C)CO)C(=O)c2cc(N(C)C)ccc2O1 | 1.5
O=C(CCCCCC(=O)Nc1ccccc1O)N/N=C/[C@H](O)[C@@H](O)[C@H](O)[C@H](O)CO[C@H]1O[C@H](CO)[C@H](O)[C@H](O)[C@H]1O | 0.2
CC(C)NC(=O)N(C)C[C@@H]1OCCCC[C@@H](C)Oc2ccc(NC(=O)Nc3ccccc3)cc2C(=O)N([C@H](C)CO)C[C@@H]1C | 0.9
C[C@H](CO)N1C[C@H](C)[C@@H](CN(C)C(=O)Nc2ccccc2)OCCCC[C@H](C)Oc2ccc(NS(=O)(=O)c3ccc(F)cc3)cc2C1=O | 0.1
COc1ccc(S(=O)(=O)N(C)C[C@@H]2Oc3ccc(NS(=O)(=O)c4ccc(C)cc4)cc3CC(=O)N([C@H](C)CO)C[C@H]2C)cc1 | 0.2
O=C(N/N=C/c1ccc[nH]1)c1ccccc1O | -3.7
C[C@H](CO)N1C[C@H](C)[C@H](CN(C)C(=O)Nc2cccc3ccccc23)OCc2cn(nn2)CCCC1=O | -0.3
C[C@H](CO)N1C[C@H](C)[C@H](CN(C)S(=O)(=O)c2ccc3c(c2)OCCCO3)OCc2cnnn2CCCC1=O | -0.1
C[C@@H]1CN([C@H](C)CO)C(=O)Cc2cc(NS(=O)(=O)c3ccc(Cl)cc3)ccc2O[C@@H]1CN(C)Cc1ccncc1 | 0.5
COc1ccc(CN(C)C[C@@H]2Oc3c(NC(=O)CCCCCC(=O)Nc4ccccc4N)cccc3C(=O)N([C@H](C)CO)C[C@H]2C)cc1 | 0.9
Cc1noc(C)c1S(=O)(=O)N(C)C[C@@H]1Oc2c(NC(=O)c3cnccn3)cccc2C(=O)N([C@H](C)CO)C[C@@H]1C | 0.1
C[C@@H]1CN([C@@H](C)CO)C(=O)c2cc(NC(=O)Cn3cnnn3)ccc2O[C@H]1CN(C)Cc1ccncc1 | 1.5
COc1ccc(NC(=O)Nc2ccc3c(c2)C(=O)N([C@@H](C)CO)C[C@H](C)[C@H](CN(C)C(=O)Nc2ccc(C(F)(F)F)cc2)O3)cc1 | -0.4
C[C@H]1CN([C@@H](C)CO)C(=O)c2cc(NC(=O)CCCCCC(=O)Nc3ccccc3N)ccc2O[C@@H]1CN(C)C(=O)Nc1ccc2c(c1)OCO2 | 0.0
C[C@H](CO)N1C[C@H](C)[C@H](CN(C)C(=O)Nc2ccccc2F)OCc2cn(nn2)CCCC1=O | 0.4
Cc1noc(C)c1NC(=O)Nc1ccc2c(c1)C(=O)N([C@@H](C)CO)C[C@@H](C)[C@H](CN(C)C(=O)c1ccccc1)OCCCC[C@@H](C)O2 | 0.2
C[C@H](CO)N1C[C@H](C)[C@H](CN(C)Cc2cccc(C(F)(F)F)c2)Oc2ncc(C#CCN(C)C)cc2C1=O | -0.9
C[C@@H]1CN([C@@H](C)CO)C(=O)c2cccc(NC(=O)Nc3ccc(C(F)(F)F)cc3)c2O[C@H]1CN(C)Cc1ccc(Oc2ccccc2)cc1 | -1.0
C[C@@H]1CCCCO[C@@H](CN(C)C(=O)CCC(F)(F)F)[C@@H](C)CN([C@@H](C)CO)C(=O)c2cc(NS(C)(=O)=O)ccc2O1 | 0.3
C[C@H]1C=C(C(=O)Nc2ccccc2)O[C@@H](OCCCCO)C1 | -0.3
CCCC(O)C#Cc1cnc2c(c1)C(=O)N([C@H](C)CO)C[C@H](C)[C@H](CN(C)C)O2 (some centres not stated) | -0.2
C[C@@H]1CN([C@@H](C)CO)C(=O)c2cc(NC(=O)CCCCCC(=O)Nc3ccccc3N)ccc2O[C@H]1CN(C)S(=O)(=O)c1cn(C)cn1 | 0.2

(further entries)
SMILES | A1 apoptosis 2
COc1ccc(CN(C)C[C@H]2Oc3ccc(NC(=O)Nc4ccc(C(F)(F)F)cc4)cc3C(=O)N([C@@H](C)CO)C[C@@H]2C)cc1 | 0.9
Cc1ccc(S(=O)(=O)Nc2ccc3c(c2)C(=O)N([C@@H](C)CO)C[C@H](C)[C@@H](CN(C)Cc2ccncc2)O3)cc1 | -1.7
COc1ccc(S(=O)(=O)N(C)C[C@H]2Oc3ccc(NS(=O)(=O)c4cccs4)cc3C(=O)N([C@H](C)CO)C[C@H]2C)cc1 | -0.2
C[C@@H]1CN([C@@H](C)CO)C(=O)c2cc(NC(=O)Cc3cn(C)c4ccccc34)ccc2O[C@@H]1CN(C)S(=O)(=O)c1cn(C)cn1 | 0.7
C[C@@H]1CCCCO[C@H](CN(C)C)[C@H](C)CN([C@H](C)CO)C(=O)c2cc(NC(=O)Nc3ccc(C(F)(F)F)cc3)ccc2O1 | 2.6
C[C@H](CO)N1C[C@H](C)[C@@H](CN(C)C(=O)Nc2cccc(C(F)(F)F)c2)OCc2cn(nn2)CCCC1=O | 0.0
C[C@H](CO)N1C[C@H](C)[C@@H](CN(C)Cc2ccc(C(F)(F)F)cc2)Oc2c(NC(=O)Nc3ccccc3)cccc2C1=O | -1.2
C[C@H](CO)N1C[C@H](C)[C@@H](CN(C)Cc2ccc(C(=O)O)cc2)OCCCC[C@H](C)Oc2ccc(NS(=O)(=O)c3ccccc3)cc2C1=O | -0.5

Copied from the list:
Reading for C[C@@H]1CN([C@@H](C)CO)C(=O)c2cc(NC(=O)Cc3cn(C)c4ccccc34)ccc2O[C@@H]1CN(C)S(=O)(=O)c1cn(C)cn1 under A1 apoptosis 2: 0.7
Reading for C[C@H](CO)N1C[C@H](C)[C@@H](CN(C)Cc2ccc(C(F)(F)F)cc2)Oc2c(NC(=O)Nc3ccccc3)cccc2C1=O under A1 apoptosis 2: -1.2
Reading for C[C@H](CO)N1C[C@H](C)[C@@H](CN(C)C(=O)Nc2cccc(C(F)(F)F)c2)OCc2cn(nn2)CCCC1=O under A1 apoptosis 2: 0.0
Reading for COc1ccc(CN(C)C[C@H]2Oc3ccc(NC(=O)Nc4ccc(C(F)(F)F)cc4)cc3C(=O)N([C@@H](C)CO)C[C@@H]2C)cc1 under A1 apoptosis 2: 0.9
Reading for C[C@@H]1CCCCO[C@H](CN(C)C)[C@H](C)CN([C@H](C)CO)C(=O)c2cc(NC(=O)Nc3ccc(C(F)(F)F)cc3)ccc2O1 under A1 apoptosis 2: 2.6
Reading for C[C@H](CO)N1C[C@H](C)[C@@H](CN(C)Cc2ccc(C(=O)O)cc2)OCCCC[C@H](C)Oc2ccc(NS(=O)(=O)c3ccccc3)cc2C1=O under A1 apoptosis 2: -0.5

Of the compounds above, 2 have a COOH group:
SMILES | A1 apoptosis 2
CC(C)NC(=O)Nc1ccc2c(c1)C(=O)N([C@H](C)CO)C[C@H](C)[C@H](CN(C)Cc1ccc(C(=O)O)cc1)O2 | 0.0
C[C@H](CO)N1C[C@H](C)[C@@H](CN(C)Cc2ccc(C(=O)O)cc2)OCCCC[C@H](C)Oc2ccc(NS(=O)(=O)c3ccccc3)cc2C1=O | -0.5
